Source: PubChem BioAssay (ICCB-Longwood Screening Facility, Harvard Medical School)
AID504770 – growth inhibition of E. coli YBA685, primary screen, V. cholerae RctB inhibitors; E. coli YBA685 rctB-dependent plasmid, OD600 growth, 3 h; active compounds read low; z-score (no concentration beside the values); 130,000 tested, 0.27% active;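 active = z-score under -2 on both plates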;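 note: wells of about 30 µL received 100 nL stock; score is relative to mean and SD of the test wells; the first replicate is given; strong numbers were not always called active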
Ba CapD inh – Bacillus anthracis CapD inhibitors, primary screen, biochemical, fluorescence intensity | CapD gamma-glutamyltranspeptidase (Bacillus anthracis Ames Ancestor) | purified CapD enzyme, fluorescence intensity read-out; active compounds read low; some hits fall short of the stated cut | z-score (concentration not given with the values) | 140,000 tested, 0.23% active | AID 492967, 2010;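 active = z-score under -4 in either of two replicates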;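 note: stock transfer was 100 nL into about 40 µL; score is relative to mean and spread of the plate; one replicate is shown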
* marks the source's active call; other numbers are inactive results; i = inactive; x = no result given. Only part of the results is shown, so the mix of outcomes need not match the whole.

SMILES | AID504770 | Ba CapD inh
Cc1cc(NC(=O)NC(C)(C)C)no1 | 0.4 | -0.29
FC(F)n1nnn(-c2ccccc2)c1=S | -0.55 | x
CC1CCC(Nc2ccc(S(=O)(=O)N3CCOCC3)cn2)CC1 (centres undefined) | -0.85 | x
CCN=C1SC(C(N)=O)CC(=O)N1CC (centres undefined) | -0.6 | 0.545
CN(Cc1ccco1)C(=O)c1c[nH]c2ccc(S(=O)(=O)Nc3ccccc3F)cc2c1=O | -0.2 | 0.385
Cn1c(=O)c(=O)[nH]c2c(=O)oc3ccccc3c21 | -0.4 | 0.695
NC(=O)NC(=O)Cn1ncc(Cl)c(Cl)c1=O | -1.1 | x
CC(=O)N1c2ccc(S(=O)(=O)N(C)CC(=O)N3CCN(C4CCCCC4)CC3)cc2CC1C (centres undefined) | -0.25 | 0.07
N#CCC(=O)Nn1c(=S)[nH]c2ccccc2c1=O | -0.6 | 0.19
Clc1cccc(C2NCc3ccccc3-n3cccc32)c1 (centres undefined) | 0.25 | 0.505
O=S(=O)(NCC1CC1)c1ccc(F)cc1F | 1.6 | -0.96
Cc1ccc(SC(C)C(=O)Nc2ccc(N(C)C)cc2)cc1 (centres undefined) | 0.55 | 0.34
CNC(=O)COc1c(C)c(C)cc(C)c1C | -0.45 | -0.77
CCCN(CCC)c1nc(Cl)nc(NCCN2CCOCC2)n1 | 0.35 | 0.265
CCOC(=O)c1cc(-c2ccccc2)no1 | -0.8 | -0.16
CC(=O)N1CCc2cc(N=Nc3c(N)[nH]n(-c4ccccc4)c3=O)ccc21 | -0.1 | x
Cc1cccc(N2CCN(C(=O)NC3CCCCC3)CC2C)c1 (centres undefined) | -0.15 | -0.375
CSc1ncc(Br)c(C(=O)O)n1 | -0.1 | 0.87
COc1ccc(-n2cnc3cc(NS(=O)(=O)c4ccccc4)ccc32)cc1 | 0 | x
CCOC(=O)C1=C(C)OC(N)=C(C#N)C1c1c(C)[nH]c(C#N)c1C (centres undefined) | x | 0.6
CC1Cc2ccccc2N1C(=O)COC(=O)c1ccc(Cl)c(N)c1 (centres undefined) | -1.35 | 16.9
COc1ccc(Cl)cc1C(=O)Nn1c(-c2ccc(Br)cc2)nc2ccccc2c1=O | x | -0.02
O=C(c1cc(=O)[nH]c2ccccc12)N1CCN(Cc2ccc3c(c2)OCO3)CC1 | -0.4 | x
Cc1csc2sc(COC(=O)c3cc(C(F)(F)F)cc(C(F)(F)F)c3)c(C)c12 | x | 0.16

Some of the entries so far, field by field:
O=C(c1cc(=O)[nH]c2ccccc12)N1CCN(Cc2ccc3c(c2)OCO3)CC1
  AID504770: -0.4
  Ba CapD inh: x
Cc1cc(NC(=O)NC(C)(C)C)no1
  AID504770: 0.4
  Ba CapD inh: -0.29
CSc1ncc(Br)c(C(=O)O)n1
  AID504770: -0.1
  Ba CapD inh: 0.87
CCCN(CCC)c1nc(Cl)nc(NCCN2CCOCC2)n1
  AID504770: 0.35
  Ba CapD inh: 0.265

Next section
SMILES | AID504770 | Ba CapD inh
C/C(CCc1ccc2c(c1)OCO2)=N\NC(=O)c1ccccc1 | 0.8 | x
CC12C(=O)N(CCC3=CCCCC3)C(=O)C1C(c1ccccc1)C=CC2c1ccccc1 (centres undefined) | -0.75 | 0.925
CN(C)CCC(=O)c1ccc2c(c1)OCCO2 | 0.9 | 1.2
Clc1ccccc1CSC1=NCCCN1 | x | 0.475
Cc1cc2nc(-c3ccc(C(F)(F)F)cc3)cc(C(F)(F)Cl)n2n1 | x | -0.17
COc1cccc(OC)c1C(=O)c1ccncc1 | x | 0.14
O=C(COC(=O)c1ccccc1Nc1ccccc1F)c1ccccc1 | x | 0.275
Cc1noc(C)c1C(=O)Nc1nc2ccc(Cl)cc2s1 | -0.1 | 0.695
N#CCc1ccc(OCc2c(F)cccc2Cl)cc1 | x | 0.165
C=CCOC(=O)C1=C(N)OC(C)=C(C(=O)OCCOC)C12C(=O)Nc1ccccc12 (centres undefined) | x | -0.605
O=C(NCc1csc(-c2cccs2)n1)Nc1ccc2c(c1)OCCCO2 | -0.5 | 11.6
CC(=O)NCc1ccc(S(=O)(=O)N(C)C)cc1 | 0 | -0.16
CC(C)c1ccc(C2C3CCc4ccccc4C3=NN2CCO)cc1 (centres undefined) | -0.05 | 72.3
N#CC1=C(N)n2c(s/c(=C\c3ccccc3F)c2=O)=C(C#N)C1c1ccccc1F (centres undefined) | x | 6.03
Cc1ccc(NC(=O)O/N=C/c2c(C)nn(C(C)(C)C)c2C)cc1Cl | 0.2 | 0.065
Cc1cc(Oc2ccc(C(F)(F)F)cc2-n2cccc2)cc(C)c1Cl | -0.65 | -1.21
CCN1CCN(CCNC(=O)c2cc(-c3ccccn3)nc3ccccc23)CC1 | 0.65 | 0.365
COc1ccc(C(=O)N/N=C/c2ccc(Br)cc2)cc1OC | x | -1.03
CS(=O)(=O)/C(C#N)=C/c1ccccc1OCc1c(Cl)cccc1Cl | 0.15 | 0.11
O=c1[nH]nc(Sc2ncnc3sccc23)n1CCc1ccccc1 | 0.55 | x
Cn1cnnc1SCC(=O)Nc1ccc2nc(SCC(=O)N3CCc4ccccc43)sc2c1 | x | -0.02
O=C(NCCc1ccccc1)C1=CCN(S(=O)(=O)c2ccccc2)CC1 | 0 | 0.91
CCOC(=O)c1cnn(CCOC(=O)c2ccc(C)cc2)c1NC(=O)c1ccc(C)cc1 | 0.15 | 0.27
CCN1CCN(C(C)C(=O)Nc2ncc(C)s2)CC1 (centres undefined) | -0.65 | x
Cc1ccc(-c2csc(-c3nnn(-c4cccc(Cl)c4)c3N)n2)cc1 | 2.35 | -1.29
OCc1nc2ccc(-c3ccc4nc(CO)[nH]c4c3)cc2[nH]1 | -0.6 | x
CCOC(=O)c1c(-c2ccccc2)oc2cc(Br)c(OCC(=O)c3ccc(OC)cc3)cc12 | x | 1.42
CCN(CC)CCOc1cc(C)cc(C)c1 | -0.55 | 0.195
CCCC1=NN(c2cccc(C(=O)O)c2)C(=O)C1 | -0.3 | -1.1
COC(=O)c1ccc(CSCC(=O)Nc2ccc(C)c(C)c2)o1 | 0.95 | x
O=c1cccc2n1CC1CC2CN(c2ncnc3c2cnn3-c2ccc(Cl)cc2)C1 (centres undefined) | 0.85 | x
Cc1cccc(N2CC(O)(c3ccccc3)[N+]3=C2SCCC3)c1C (centres undefined) | x | 0.215
O=C(Nc1ccccc1)C1CC2CCC1C2 (centres undefined) | 0.4 | 0.475
N#Cc1c(-c2ccco2)cc(C2CC2)nc1SCC(=O)c1ccc(Br)cc1 | 0.05 | 0.25
O=C(Nc1ccncc1)c1cc2c(s1)CCC2 | -0.55 | 0.595
CCOC(=O)c1sc2nc(CC(=O)OC)nc(Nc3ccc(F)cc3Cl)c2c1C | x | 1.25

Part of the list above in order of number of heavy atoms, largest number first:
SMILES | AID504770 | Ba CapD inh
CCOC(=O)c1c(-c2ccccc2)oc2cc(Br)c(OCC(=O)c3ccc(OC)cc3)cc12 | x | 1.42
O=c1cccc2n1CC1CC2CN(c2ncnc3c2cnn3-c2ccc(Cl)cc2)C1 (centres undefined) | 0.85 | x
CCCC1=NN(c2cccc(C(=O)O)c2)C(=O)C1 | -0.3 | -1.1
O=C(Nc1ccccc1)C1CC2CCC1C2 (centres undefined) | 0.4 | 0.475

Later entries:
SMILES | AID504770 | Ba CapD inh
COc1ccccc1Oc1ccccc1C(=O)N1CCCCCC1 | -0.1 | -0.32
CCCNC(=O)Cn1ncc2c([nH]c3ccccc32)c1=O | 0.75 | 2.27
NC(=O)c1cccc2ccccc12 | 0.45 | 1.68
COc1ccc(-n2c(N)cc(=O)[nH]c2=O)cc1 | -0.7 | 0.5
Cc1[nH]c2ccc(C(=O)Nc3ccccc3F)cc2c1C | 0.45 | 7.62
CN(C)C=NC(=O)C1=NOC(CNc2ncc(C(F)(F)F)cc2Cl)C1 (centres undefined) | x | -0.21
COc1ccc(S(=O)(=O)N(CC(=O)Nc2ccc3c(c2)OCO3)c2ccccc2)cc1 | -0.8 | x
Cc1ccc(NCc2ccc3c(c2)OCO3)cc1 | -0.1 | x
Cc1cc(-c2ccccc2)nc2c1/C(=N\O)CC(C)(C)C2 | 1.75 | -0.42
CC(C)NC(=O)c1cnc(Sc2ncc(C(F)(F)F)cc2Cl)n1C | x | -0.035
CC(=O)N(C1=C(O)c2ccccc2C(=O)C1=O)c1ccccc1 | -0.1 | -0.98
O=C(Cn1cccc1C(=O)c1ccccc1)NCc1ccccc1 | 0.25 | 0.35
O=C(CN1C(=O)c2ccccc2S1(=O)=O)NC1CCCC1 | -0.3 | x
CSc1ccc(C2C3=C(CC(C)(C)CC3=O)OC3=C2C(=O)CC(C)(C)C3)cc1 | x | -0.985
COc1ccc(-c2onc(C(F)(F)F)c2-c2cnn(-c3ccccc3)c2)c(O)c1 | 0.55 | x
CSc1nc2ccc3nc(NC(=O)c4ccc(S(=O)(=O)N5CC(C)OC(C)C5)cc4)sc3c2s1 (centres undefined) | x | 0.13
COc1ccc(N2CCN(C(=O)CNC(=O)c3ccccc3)CC2)cc1 | -0.35 | 0.225
COCCn1c(C)cc(C(=O)CSc2nnc(Nc3ccccc3C)s2)c1C | 1.05 | x
COC(=O)OC1CCS(=O)(=O)C1 (centres undefined) | -0.6 | -0.365
CCCOc1ccccc1C1Nc2ccccc2-c2nnc(SC)nc2O1 (centres undefined) | x | 0.085
CCCCC(=O)Nc1nnc(-c2c(C)c(C)cc(C)c2C)s1 | -0.4 | -0.85
CCN(CC)C(=O)c1cnn(-c2ccccc2)c1-n1cccc1 | 0.6 | -1.06
NC(=O)c1ccccc1NC(=O)CC12CC3CC(CC(Br)(C3)C1)C2 | -0.2 | 1.33
CCOC(=O)c1c(NC(=O)CCN2C(=O)/C(=C/c3ccc(F)cc3)SC2=S)sc2c1CCCC2 | x | 0.8
O=C(O)C(C(=O)/C=C/c1ccc2c(c1)OCO2)=C1SCCS1 | -0.45 | -2.79
CCOC(=O)/C(C#N)=C/c1cn(CCC#N)nc1C | -0.5 | x
CCOC(=O)c1cc2occc2n1CC | -0.3 | x
N/C(=N\OC(=O)c1cnc2n(c1=O)CCS2)c1ccc(C(F)(F)F)cc1 | 1.45 | 2.06
COc1ccc(S(=O)(=O)N2CCN(c3ccc(F)cc3)CC2)cc1C(=O)N1CCOCC1 | 0.2 | x
CC(O)CNc1nc2ccccc2n1-c1ncnc2sc3c(c12)CCC3 (centres undefined) | 0.45 | x
COC(Cn1c(-c2ccc(C)cc2)n[nH]c1=S)OC | 0.3 | 0.95
O=C(O)c1c(-n2cccc2)sc2c1CCC2 | 1.15 | -0.445
O=C(CNc1ccc(Cl)cc1F)N1CCc2ccccc21 | 0.1 | x
Cc1nnc(Sc2cc(C(=O)NCCN3CCOCC3)c3ccccc3n2)s1 | -0.45 | 1.82
Cc1cc(C=C2C(=O)N(C)C(=O)N(C)C2=O)c(C)n1-c1ccc(Br)cc1 | x | -0.23
O=C1CCN(C(=O)c2ccc(Cl)cc2)c2ccccc21 | 0.4 | -0.165
COc1ccc(C2=NOC(C(=O)NCc3ccco3)C2)cc1 (centres undefined) | 0 | -0.375
CCN(CC)c1ccc(NC(=O)c2ccc(Cl)cc2)c(N(CC)CC)n1 | -0.75 | 0.41
Cc1ccc(S(=O)(=O)N(C)C(=O)NC(=O)Nc2ccc(S(=O)(=O)Nc3nc(C)cc(C)n3)cc2)cc1 | x | 0.225
CCN(CCO)C(=O)CC(c1ccccc1)c1cc(Br)ccc1O (centres undefined) | -0.85 | 0.27
COc1ccc(N2CCN(c3ncnc4sc(C(=O)O)c(C)c34)CC2)cc1 | x | -0.45
O=C(Nc1nc2sc3c(c2c(=O)s1)CCCC3)c1ccccc1 | -0.9 | 0.285
CCc1ccc2[nH]c(C)c(CN(C)C)c(=O)c2c1 | 1.05 | 1.91
CCCCOc1ccc(NC(=O)CSc2nc(N)c(C#N)cc2C#N)cc1 | x | -1.41
CN1CCN(C(=O)C2CCC(=O)N2Cc2ccccc2Cl)CC1 (centres undefined) | 0.2 | 0.3
O=C(Nc1cccc(Cl)c1)OCc1ccc2c(c1)OCO2 | -0.45 | -0.245
c1ccc(-c2nn3c(CN4CCOCC4)nnc3c3ccccc23)cc1 | -1.05 | 1.37
CC1(C)CC(=O)C/C(=N\NC(=S)Nc2ccc(S(=O)(=O)N3CCOCC3)cc2)C1 | 0.1 | x

A section from the list above:
SMILES | AID504770 | Ba CapD inh
Cc1cc(NC(=O)NC(C)(C)C)no1 | 0.4 | -0.29
FC(F)n1nnn(-c2ccccc2)c1=S | -0.55 | x
CC1CCC(Nc2ccc(S(=O)(=O)N3CCOCC3)cn2)CC1 (centres undefined) | -0.85 | x
CCN=C1SC(C(N)=O)CC(=O)N1CC (centres undefined) | -0.6 | 0.545

(cont.)
SMILES | AID504770 | Ba CapD inh
C/C(=N\NC(=S)Nc1cccc(C)c1C)c1ccc(S(=O)(=O)NCc2ccco2)cc1 | -0.5 | x
CCOc1ccccc1N/C(SCc1ccccc1C)=C(/C#N)C(=O)NCc1cccs1 | x | 0.065
CC(=O)Nc1ccc(-c2cn3cccc(C)c3n2)cc1 | -0.25 | 0.23
CCOC(=O)C1C(C(=O)NN)C1C(=O)Nc1cccc(C(F)(F)F)c1 (centres undefined) | x | -0.64
CCOC(=O)c1c(C)n(CCOc2c(C)cc(C)cc2C)c2c1cc(O)c1ccccc12 | x | 8.16
O=C1OCCN1N=Cc1ccc([N+](=O)[O-])o1 | x | 1.65
C=CCOc1ccc2oc(=O)cc(C)c2c1 | -1.15 | 43
O=C1OC(c2ccco2)=N/C1=C\c1cccc(Cl)c1Cl | -0.5 | i
CCC1CCCCN1C(=O)CSc1nc2ccccc2s1 (centres undefined) | 0.95 | -0.13
CC1CCCCN1S(=O)(=O)c1ccc(I)cc1 (centres undefined) | -0.35 | -0.505
